OX1R antagonist – OX1R (HCRTR1) antagonists, primary screen, fluorescence, CHO/OX1R cells, Fluo-8 calcium, orexin A. Orexin/Hypocretin receptor type 1 (Homo sapiens), O43613. Fluo-8 calcium fluorescence. inhibition, % at 5 µM. 330,000 tested, 0.43% active. AID 434989, 2010;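 active = inhibition above its plate's threshold, mean inhibition of all tested compounds on the plate plus 3 SD, cut at about 37% in these data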;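 also: 0% = orexin A challenge wells and 100% = SB-334867-A antagonist wells; not every result past the cut was called active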
Target sequence (O43613 whole entry, looked up): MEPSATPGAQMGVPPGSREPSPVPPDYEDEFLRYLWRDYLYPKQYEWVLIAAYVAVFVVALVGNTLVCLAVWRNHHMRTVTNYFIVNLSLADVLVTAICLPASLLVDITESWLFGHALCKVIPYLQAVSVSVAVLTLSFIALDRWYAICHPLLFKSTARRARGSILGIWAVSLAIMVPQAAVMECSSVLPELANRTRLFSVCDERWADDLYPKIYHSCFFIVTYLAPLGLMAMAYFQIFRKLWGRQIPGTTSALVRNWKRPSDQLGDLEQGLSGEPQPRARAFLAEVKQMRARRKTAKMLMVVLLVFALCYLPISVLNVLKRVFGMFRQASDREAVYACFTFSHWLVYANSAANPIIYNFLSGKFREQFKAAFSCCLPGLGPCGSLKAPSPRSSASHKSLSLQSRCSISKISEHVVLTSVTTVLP
Active calls of the source: *. This is a subset, and most or all hits are left out here.

SMILES | OX1R antagonist
CSCCCNC(=O)c1ccc(OC2CCN(C(=O)c3cccnc3)CC2)cc1 | -18
CC1CC(C)CN(S(=O)(=O)N2CCCC(C(=O)NCCc3ccc(Cl)cc3)C2)C1 (centres undefined) | -38
O=C(N/N=C/c1ccncc1)c1ccc(NC(=O)c2cccc(Cl)c2)cc1 | -2
CSc1nc2ccccc2c(=O)n1N | -14
O=C(Nc1ccc(S(=O)(=O)N2CCCCC2)cc1)C1CC(=O)N(c2ccccc2)C1 (centres undefined) | 5
O=C(c1ccc([N+](=O)[O-])cc1)N(C1=NCCCCS1)c1ccccc1 | -11
COc1cc(-n2c(=O)c3ccccc3n(CC(=O)c3ccccc3)c2=O)cc(OC)c1OC | -6
CCC1CCCCN1C(=S)Nc1ccc(SC(F)F)cc1 (centres undefined) | 6
Cc1cc(S(=O)(=O)N2CCOCC2)ccc1OCC(=O)NCc1ccco1 | 4
O=C(O)CCN1CC2([N+](=O)[O-])C=CC(=O)C([N+](=O)[O-])(C1)C2CC(=O)c1ccccc1 (centres undefined) | 6
COc1c2ccc(C(=O)NCc3cc(C(F)(F)F)cc(C(F)(F)F)c3)cc2nn1C | -3
Cn1c(=O)c(-c2cc(Br)ccc2N)nc2ccccc21 | -28
COCCNc1nnc(SCC(=O)NNC(=O)c2ccccc2)s1 | -17
COc1ccc(NC(=S)NNC(=O)c2ccc(S(=O)(=O)N3CCOCC3)cc2)cc1 | -11
CCC(/C=N/NC(=O)C1COc2ccccc2O1)CC (centres undefined) | -17
C=CCSc1nsc(N)n1 | -1
COc1ccc(Br)cc1S(=O)(=O)n1ccnc1 | -6
O=C(COc1ccc(Cl)cc1)Nc1ccc(C(=O)O)cc1NC(=O)COc1ccc(Cl)cc1 | -14
O=C(c1cccc(OC2CCN(Cc3cc(F)cc(F)c3)CC2)c1)N1CCCC1 | 0
CC(C)(C)c1cn(-c2ccccc2)c(=S)[nH]1 | -2
COCCn1nnnc1CN1CCC(O)(c2cccc(C(F)(F)F)c2)CC1 | -6
NC(=O)COC(=O)Cc1coc2cc3c(cc12)CCC3 | -13
O=C(COC(=O)c1ccccc1)Nc1cccc(S(=O)(=O)NC2=NCCCCC2)c1 | -6
CCOCCCn1c(SCC(=O)NC(C)(C)C)nc2ccccc2c1=O | -16
O=[N+]([O-])c1cc([N+](=O)[O-])c(Oc2cccnc2Br)cc1NN1CCCCC1 | -30
CNC(=S)N1CCc2cc(OC)c(OC)cc2C1 | -10
CCOc1ccc(NC(=S)NC(C)CCc2ccccc2)cc1 (centres undefined) | -24
CCC1(CC)NC(=O)N(CC(=O)OCC(=O)Nc2sccc2C#N)C1=O | 0
OCC1(CCOc2ccccc2)CCN(CC2=Cc3cc(Cl)ccc3OC2)CC1 | 13
NCCS(=O)(=O)O | -5
CCOC(=O)CSc1nc2c(c(=O)n(Cc3ccccc3Cl)c(=O)n2C)n1C | -19
O=CNc1ccc(OC(=O)c2cncc(Br)c2)cc1 | 1
CC(=O)c1ccc(N2CCN(C(=O)c3ccc4c(=O)n(-c5ccccc5)c(=O)[nH]c4c3)CC2)cc1 | 10
Cc1ccc(C2=[N+]([O-])C3(CCCCC/C3=N\O)N(O)C2(C)C)o1 (centres undefined) | -7
COc1cc(C(=O)NCC(=O)N/N=C(C)\C=C\c2ccccc2)cc(OC)c1OC | -51
COCCCN1C(=O)c2ccc(C(=O)Nc3ccccc3Cl)cc2C1=O | -21
COc1ccc(CN2CCN(Cc3ccc(Br)cc3)CC2)c(OC)c1OC | -30
O=C(OC1CCOC1=O)c1cccc(S(=O)(=O)Nc2cccc(Cl)c2)c1 (centres undefined) | -4
Cc1cc(C)n(CC(=O)N2CCc3ccccc32)c(=O)c1C#N | -6
Cc1ccc(-n2c(C)nc3ccsc3c2=O)cc1 | -54

Arranged by count of non-hydrogen atoms (smallest number first): six of the compounds above.
SMILES | OX1R antagonist
Cc1ccc(-n2c(C)nc3ccsc3c2=O)cc1 | -54
O=CNc1ccc(OC(=O)c2cncc(Br)c2)cc1 | 1
Cc1ccc(C2=[N+]([O-])C3(CCCCC/C3=N\O)N(O)C2(C)C)o1 (centres undefined) | -7
O=C(OC1CCOC1=O)c1cccc(S(=O)(=O)Nc2cccc(Cl)c2)c1 (centres undefined) | -4
CCOC(=O)CSc1nc2c(c(=O)n(Cc3ccccc3Cl)c(=O)n2C)n1C | -19
OCC1(CCOc2ccccc2)CCN(CC2=Cc3cc(Cl)ccc3OC2)CC1 | 13

(list continues)
SMILES | OX1R antagonist
COc1ccc2cc(CN(CC3CCCO3)C(=O)Nc3ccccc3OC)c(=O)[nH]c2c1 (centres undefined) | -15
COc1ccc(/C([O-])=C(/C(=S)Nc2ccc(C)c(C)c2)n2c[n+](C)c3ccccc32)cc1OC | -19
Cc1ccc(Nc2nc(-c3sc(NC(=O)c4ccc([N+](=O)[O-])cc4)nc3C)cs2)cc1 | 10
C=CC(=O)NCCCc1cc(C(C)(C)C)c(O)c(C(C)(C)C)c1 | -15
O=C(Nc1nc(-c2ccc3c(c2)OCO3)cs1)C1CC1 | -14
Cc1nc(N)sc1C(=O)N1N=N1 | -19
Cc1ccc(NC(=O)c2cccnc2)cc1C | -8
COc1ccc(C(=O)Nc2ccccc2C(=O)Nc2ccccc2C(=O)O)cc1 | -32
CCOC(=O)c1ccc(NC(=S)N2CCCC(C)C2)cc1 (centres undefined) | -10
O=C(O)CCn1cc(-c2ccc(Cl)cc2)nc1-c1ccc(Cl)nc1 | 13
C=CCn1c(=NC(=O)C2CCCCC2)sc2cc(NC(C)=O)ccc21 | -3
CCOc1ccc(NC(=O)COc2ccc(C(=O)N3CCC(C(N)=O)CC3)cc2OC)cc1 | -12
O=C(Nc1ccccc1Cl)Nc1ccnn1C1CCN(C(=O)c2cscn2)CC1 | 10
COc1cc(C(=O)NCc2ccc3c(c2)OCO3)c([N+](=O)[O-])cc1OC | -28
COc1ccc(CNC(=O)CNC(=O)c2cccs2)c(OC)c1 | -1
CS(=O)(=O)N1CCCC(C(=O)Nc2ccc(Br)cc2F)C1 (centres undefined) | -17
CCCCCCCC(=O)NC(Nc1ccc(S(N)(=O)=O)cc1)C(Cl)(Cl)Cl (centres undefined) | 9
O=C(CNC1CCCCC1)Nc1ccc(S(=O)(=O)N2CCCCC2)cc1 | -10
CC(C)NS(=O)(=O)c1ccc(OCC(=O)NCCC2=CCCCC2)cc1 | -17
Cc1ccccc1-c1nsc(SCC(=O)c2ccc(Cl)cc2)n1 | -14
C[C@H]1CCC[C@@]2(O[C@H](CCO)C[C@H](O)[C@H]2O)O1 | 18
COc1ccc(C(=O)OCCN2CCOCC2)cc1OC | -15
Cc1ccc2oc(C(=O)N3CCN(c4cccc(C)n4)CC3)c(C)c2c1 | -37
COC(=O)c1sc(NC(=O)c2ccc(OC)cc2OC)nc1C | -27
O=C(Nc1ccc(Cl)cc1)Nc1nnc(Cc2ccc([N+](=O)[O-])cc2)s1 | 0
CCOC(=O)C(Sc1nnc(-c2ccncc2)o1)C(C)=O (centres undefined) | 1
COc1ccc(CNC(=O)C2CCC(=O)N(CCCN3CCCC3=O)C2)c(OC)c1 (centres undefined) | -25
CC(C)Oc1cccc(C(=O)Nc2ccccc2N2CCOCC2)c1 | -26
COC(=O)c1sc(NC(=O)COc2ccccc2OC)nc1C | -18
CCC(=O)c1cc2c(cc1NC(=O)c1cccs1)OCCO2 | -25
CC(C)(C)NC(=O)C(OC(=O)c1cccs1)c1ccc(F)cc1 (centres undefined) | -13
CCc1nnc(NC(=O)C2Cc3ccccc3C(=O)O2)s1 (centres undefined) | -21
Cc1c(CN2CCc3c([nH]c4ccccc34)C2CC(C)C)cnn1C (centres undefined) | -28
COC(=O)N/N=C/c1cc(C)n(-c2ccc(Br)cc2)c1C | -15
Cc1ccc(OC(=O)c2cccc(C(=O)Oc3ccc(C)cn3)n2)nc1 | -13
C/C=C/C=C\C(=O)Nc1cccc(C2=NOC3(C2)C[C@@H](C(N)=O)N(C(=O)/C(C)=C/C)C3)c1 (some centres undefined) | -1
O=c1n(Cc2ccc(F)cc2)nc2n1-c1ccccc1SC2 | -19
CSc1ccccc1OCc1cc(C(=O)N2CCN(Cc3nccn3C)CC2)no1 | -32
O=C(O)Cc1ccc(NC(=O)c2ccc3c(c2)C(=O)N(Cc2ccco2)C3=O)cc1 | -10
COc1ccccc1N1C(=O)C2C(C(=O)c3ccccc3)=NN(c3ccc(C)cc3)C2C1=O (centres undefined) | 10
COCCNC(=O)c1cn(Cc2c(F)cccc2Cl)nn1 | -9
N/C(=N\OC(=O)CC1CCCCC1)c1ccccc1 | -3
C#Cc1ccc([C@H]2C=C(C(=O)NCc3nc4ccccc4[nH]3)O[C@@H](OCc3ccc(CO)cc3)C2)cc1 | -10
O=S(=O)(c1cccc(-n2cnnn2)c1)N1CCOCC1 | 8
Cc1cccc(C(=O)OCC(=O)NC(C)CCc2ccccc2)c1 (centres undefined) | -21
O=C(CC1C(=O)NCCN1Cc1ccoc1)NCCCn1ncc2ccccc21 (centres undefined) | -38
C/C(=N\NC(=O)c1nn(C)c(C)c1Br)c1cccc(NC(=O)c2ccoc2C)c1 | -19
CCC(CO)N=CC1=C(O)CC(c2ccccc2)CC1=O (centres undefined) | 0
CCOC(=O)/C=C1\CN(C(C)c2ccccc2)S(=O)(=O)c2ccccc21 (centres undefined) | -41
Cc1ccc(C)n1-c1ccsc1C(=O)CC#N | -15
NC(=O)NCCCC(=O)OCC(=O)c1ccc2ccccc2c1 | -13
Cn1cnnc1SCC(=O)c1ccco1 | -10
CCOc1ccc(C2C(C#N)=C(N)Oc3n[nH]c(C)c32)cc1OC(=O)C1CC1 (centres undefined) | -10
COC(=O)CSc1nnc(C)n1-c1cccc(OC)c1 | -4
Cc1cccc(C)c1OCc1nnc(SCC(=O)NCCc2ccccc2)o1 | -34
CCN(CC)c1c([N+](=O)[O-])ncn1C | 7
Cc1c(C(=O)N2CCOCC2)c(S(=O)(=O)Nc2ccc(C(C)C)cc2)c(C)n1C | -19
CC(C)N1CCC(N2CCN(CCCc3ccccc3)CC2CCO)CC1 (centres undefined) | -18
COc1cccc(NC(=O)Nc2ccc3nc(C)c(C)nc3c2)c1 | -20
C=CCn1c(C(C)NC(=O)c2ccccc2)n[nH]c1=S (centres undefined) | -16

Later entries
SMILES | OX1R antagonist
NC(=O)[C@@H]1CC2(CC(c3cccc(NC(=O)CC(c4ccccc4)c4ccccc4)c3)=NO2)CN1C(=O)[C@@H]1CCC(=O)N1 (some centres undefined) | 1
CCn1cc(/C=C(\NC(=O)c2ccccc2F)C(=O)NCCN2CCOCC2)c2ccccc21 | -31
O=[N+]([O-])c1ccccc1CNCCCCO | -1
COc1cc(OC)cc(C(=O)NCCSc2c[nH]c3ccccc23)c1 | -23
CC1CN(S(=O)(=O)c2ccc(C(=O)Nc3ccc(S(=O)(=O)Nc4nccs4)cc3)cc2)CC(C)O1 (centres undefined) | 6
CCCCN1C(=S)NC[C@@H]1Cc1ccccc1 | -12
Nc1nc(SCC(=O)Nc2ccc(C(F)(F)F)cc2)[nH]c(=O)c1NC(=O)c1ccc(F)c(F)c1 | 7
O=S(=O)(Nc1ccc2nc(-c3ccco3)[nH]c2c1)c1ccccc1 | -15
COc1ccccc1OCCn1c(C(C)O)nc2ccccc21 (centres undefined) | -23
CCOC(=O)c1cc(S(=O)(=O)NC2CCC(C)CC2)cn1C (centres undefined) | -20
CC(O)CSc1nc2c(c(=O)[nH]c(=O)n2C)n1CC(O)COc1ccccc1 (centres undefined) | -20
Cc1cc(N/N=C/c2ccccc2Cl)nc(NCc2ccccc2)n1 | -2
C=CCOc1ccc(C(=O)CC)cc1OC | -9
Cc1nn(CC(=O)N2CCN(C)CC2)c(=O)c2ccccc12 | -9
CCOc1ccc(N2C(=O)S/C(=C\c3cccn3C)C2=O)cc1 | -2
C=CCn1c(CNC(=O)c2ccccc2F)nnc1SCc1nc2ccccc2c(=O)[nH]1 | -4
O=C(O)c1ccc2c(=O)n3c(nc2c1)/C(=C/c1cccc(Cl)c1Cl)CCCC3 | 4
CN(C)C(=O)c1cn(-c2ccc(Cl)cc2)c(=O)c2ccccc12 | -20
Clc1nc2ccccc2cc1-c1nnn(-c2ccccc2)n1 | -29
O=C(c1cc(S(=O)(=O)N2CCOCC2)c(Cl)cc1Cl)N1CCCCC1CO (centres undefined) | -21
Cc1ccc(C(C(=O)NC(C)(C)C)N(Cc2ccc3c(c2)OCO3)C(=O)c2ccc(CN3CCOCC3)o2)o1 (centres undefined) | -17
COc1ccc(S(=O)(=O)N2CCC3(CC2)CC(=O)c2ccccc2O3)cc1C | -18
CSc1nc(NC(C)=O)nc(C)c1Br | -7
CCOC(=O)c1c(N)sc2c(O)c(Br)ccc12 | -15
CC(C)OC(=O)CC1C(=O)NCCN1C(=S)NC(=O)CCc1ccccc1 (centres undefined) | -10
COc1ccccc1CNC(=O)C(=O)NCC1OCCCN1S(=O)(=O)c1cccs1 (centres undefined) | -15
CCN(CC)CCn1c2c(c(SCC(=O)Nc3nccs3)nc1=O)CCCC2 | -23
CCOC(=O)/C=C/c1ccc2c(c1)S(=O)(=O)N(Cc1ccc(OC)cc1)[C@H]2CC(=O)OCC | -7
CCOC(=O)c1c(C)[nH]c2ccc(O)cc12 | -22
Cc1cc(=O)oc2cc(N3C(=O)CC(Cc4ccccc4)C3=O)ccc12 (centres undefined) | -27

Assay outcomes as filed in PubChem BioAssay.
